HPGD block: qHTS Assay for Inhibitors of HPGD (15-Hydroxyprostaglandin Dehydrogenase); 15-hydroxyprostaglandin dehydrogenase [NAD(+)] (Homo sapiens), P15428; purified HPGD, NADH fluorescence kinetic, PGE2 substrate; Potency, µM, for the others: at the highest dose activity change, negative = inhibition, hits mostly inhibitors; actives 4.3% (n = 150,000); AID 894, 2007; active = well fitted inhibition curve with a large enough effect (not every such curve was filed as active); inconclusive = small, poorly fitted or top-dose-only effect, or another doubt; inactive = no such curve, though single readings can be large or run the other way;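 further: top concentration of the series not given in the record; plate controls included wells without enzyme; inactives centre near -10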
Target sequence (P15428 whole entry, looked up): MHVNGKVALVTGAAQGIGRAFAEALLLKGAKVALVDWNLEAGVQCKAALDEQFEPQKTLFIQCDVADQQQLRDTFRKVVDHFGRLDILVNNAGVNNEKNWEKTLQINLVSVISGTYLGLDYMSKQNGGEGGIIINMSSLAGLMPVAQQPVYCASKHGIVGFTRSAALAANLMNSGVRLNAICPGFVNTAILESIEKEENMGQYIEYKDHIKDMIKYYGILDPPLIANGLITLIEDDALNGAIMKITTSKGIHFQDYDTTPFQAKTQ
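NADH formation kinetics: reaction with 30 uM PGE2 and 1 mM NAD+ (final), 20 nM enzyme, Tris-HCl pH 8 with Tween 20, after 15 min compound preincubation at room temperature. Fluorescence change, last versus first of five reads.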
* marks the source's active call; other numbers are inactive results; ? = inconclusive; [ ] = another dose, or the depositor's remark. On the % scale 0 is the no-effect control and ±100 the full control effect; potency means the concentration at half of the fitted maximal effect. A portion of the library; count on the stated rates, not on these rows.

A first look:
SMILES	HPGD block
COC(=O)\C(C(C)=O)=C(/C=C/C=C/N(C)C)N(C)C	-11%
Cc1ccc2c(CC(=O)NCc3ccco3)coc2c1C	2.8µM*
COc1cccc(-c2nn3c(-c4cccc(C)c4)nnc3s2)c1	-27%

Results, from the start:
SMILES	HPGD block
COC(=O)\C(C(C)=O)=C(/C=C/C=C/N(C)C)N(C)C	-11%
Cc1ccc2c(CC(=O)NCc3ccco3)coc2c1C	2.8µM*
COc1cccc(-c2nn3c(-c4cccc(C)c4)nnc3s2)c1	-27%
CCOc1ccccc1C(=O)N1c2ccccc2Sc2ccccc21	-6%
Cn1c(=O)c2c(SCC(=O)NCc3ccco3)nc(CC(C)(C)C)nc2n(C)c1=O	-7%
CC(=O)c1cccc(NC(=O)Nc2cnn(Cc3ccc(F)cc3)c2)c1	-16%
Cc1cc(-c2ccccc2)c(C#N)c(N)n1	?
C/C(=C\C(=O)O)C(=O)Nc1nccs1	-10%
O=C(Nc1cccc(C(F)(F)F)c1)c1ccco1	-15%
NC(Cc1cccc2nsnc12)C(=O)O (stereo not drawn)	-20%
CC1(C)COC(c2ccc(F)c([N+](=O)[O-])c2)=N1	-9%
CCCCOc1ccc(Br)cc1/C(C)=N/NC1=NCCN1	-8%
COC(=O)CC1C(C)(C)C(=O)C2CC3C4=CC(=O)OC(c5ccoc5)[C@]4(C)CCC3[C@@]1(C)C2=O (stereo partly drawn)	-5%
O=c1n(Cc2ccc(Cl)cc2)c2sc3c(c2c2ncnn12)CCCC3	-22%
O=C(NCc1ccncc1)c1ccc(Br)cc1	-16%
O=C(Nc1cc(S(=O)(=O)N2CCOCC2)ccc1N1CCOCC1)c1cnccn1	-8%
COc1ccc(NC(=O)COC(=O)c2c3c(nc4ccccc24)CCCC3)cc1	-13%
Cc1sc(-n2c(C)cc(C=O)c2C)c(C(=O)O)c1C	-4%
O=S(=O)(c1ccc2nc(Cc3cccc(C(F)(F)F)c3)[nH]c2c1)N1CCOCC1	-9%
CCn1c(COc2ccccc2)nnc1SCC(=O)Nc1cc(C)ccc1OC	-18%
CC(C)Nc1nc(Cl)nc(NN(C)c2nc(N(C)C)nc(N(C)C)n2)n1	-5%
O=C(NCc1n[nH]c(=S)n1-c1ccccc1)c1ccc(S(=O)(=O)N2CCOCC2)cc1	-15%
O=C(Cn1cnc2ccccc2c1=O)OCCCCN1C(=O)c2ccccc2C1=O	-8%
O=C(c1ccc(Oc2ccccc2)cc1)c1nc2c(n1O)CCCC2	-28%
CC(=O)Nc1nonc1-c1nc2ccccc2n1CCC(C)C	?
Cc1cc(Cl)ccc1OCCCC(=O)N1CCCc2ccccc21	-18%
Cc1cc2cc(CNC(=O)c3ccc(S(=O)(=O)N(C)C)cc3)ccc2n1C	0%
Cc1cc(C(=O)N2CCN(C/C=C/c3ccccc3)CC2)no1	-7%
COC(=O)c1cccc(NC(=O)Cc2nc(-c3ccccc3)sc2-c2ccc(C)cc2)c1	-4%
CC(=O)Nc1c(O)nc(SCc2ccccc2C#N)[nH]c1=O	0%
CC(=O)Nc1ccc(S(=O)(=O)N/N=C/c2ccc(C)s2)cc1	-14%
Cc1nnc2c3ccccc3c(-c3ccc(O)cc3)nn12	-16%
O=C(C1CCCN(S(=O)(=O)Cc2ccccc2)C1)N1CCCCC1 (stereo not drawn)	-6%
COc1cc(C(=S)N2CCC(C)CC2)ccc1O	14µM*
NC(=O)CSCc1nc2ccccc2s1	?
COc1ccc(OCC(O)Cn2cnc(-c3ccc(Br)cc3)c2)cc1 (stereo not drawn)	-15%
COc1ccc(-c2nnc(SCC(=O)NCc3ccco3)n2C)cc1	-15%
CCOC(=O)c1ccc(CN(Cc2ccccc2)S(=O)(=O)c2cccc([N+](=O)[O-])c2)cc1	-9%
COc1ccc(C(=O)CSc2nnc(CNc3ccc(C)cc3C)o2)cc1	0%
Clc1ccccc1CSc1ncn(-c2ccccc2)n1	18µM*
N#Cc1c(NC(=O)CSc2nc(-c3ccco3)cc(C(F)(F)F)n2)sc2c1CCCC2	?
COc1ccc(Cn2c(SCc3ccc(C)cc3)nc3cc(OC)c(OC)cc3c2=N)cc1Cl	-21%
O=C(C[C@@H](c1ccccc1)N1CCCCC1)c1ccccc1	?
c1ccc2c(c1)nc(NCC1CCCO1)c1nnnn12 (stereo not drawn)	?
CNC(=O)NC(=O)C(C)OC(=O)c1cc2c(s1)CCCCC2 (stereo not drawn)	-4%
CSc1nnc(-c2cc(-c3ccc(C)cc3)nc3ccccc23)o1	?
Cc1ccc(C2=NN(C(=O)CSc3nc(N)cc(N)n3)C(c3ccco3)C2)cc1 (stereo not drawn)	-21%
CC(CNCc1ccc2c(c1)OCO2)NCc1ccc2c(c1)OCO2 (stereo not drawn)	-2%
O=c1[nH]c2cc(Cl)c(Cl)cc2[nH]c1=O	?
C=C[C@](C)(O)CCC1C(=C)CCC2[C@@](C)(CO)CCC[C@@]12C (stereo partly drawn)	-13%
COC(=O)CCNc1ccc2c(c1)OCCO2	-9%
O=S(=O)(c1ccc(Br)s1)N1CCN(Cc2ccc3c(c2)OCO3)CC1	-7%
COC(=O)[C@@]1(Cc2ccc(F)cc2)[C@H]2c3cc(C(=O)N4CCCC4)n(CCCNc4ncc(C(F)(F)F)cc4Cl)c3C[C@H]2CN1C(=O)c1ccccc1	-13%
Cc1nnc(C)n1/N=C/c1cc(Br)cc(Br)c1O	-9%
COC(=O)CCCCCCCCC(O)CN1CCCCC1 (stereo not drawn)	-7%
CS(=O)(=O)Nc1cccc(-c2nc(Nc3ccc(F)cc3)c3ccccc3n2)c1	?
CCOC(=O)C1C(=O)C=C(C)C(C(=O)OCC)C1c1ccc(OC)cc1 (stereo not drawn)	-3%
COc1ccc(OC)c2sc(NC(=O)C(C)C)nc12	?
COC(=O)c1oc2ccc(OC)cc2c1N	?
CCOC(=O)c1[nH]c2ccc(OCC)cc2c1CCCN1C(=O)c2ccccc2C1=O	-16%

Compounds shown so far with a nitro group on carbon:
SMILES	HPGD block
CC1(C)COC(c2ccc(F)c([N+](=O)[O-])c2)=N1	-9%
CCOC(=O)c1ccc(CN(Cc2ccccc2)S(=O)(=O)c2cccc([N+](=O)[O-])c2)cc1	-9%

Some of the entries above in another layout.
> CCOC(=O)c1[nH]c2ccc(OCC)cc2c1CCCN1C(=O)c2ccccc2C1=O
  HPGD block: -16%
> Cc1nnc(C)n1/N=C/c1cc(Br)cc(Br)c1O
  HPGD block: -9%

(continued)
SMILES	HPGD block
CC(=O)c1ccc(OCCCC(=O)n2nnc3ccccc32)cc1	20µM*
CC1Cc2ccccc2N1S(=O)(=O)c1cccc2nsnc12 (stereo not drawn)	-1%
COc1cc(-c2nnc(-c3cc(OC)c(OC)c(OC)c3)o2)cc(OC)c1OC	?
COc1ccc(OC)c(-c2cn(S(=O)(=O)c3ccccc3)nc2N)c1	-9%
NC(=O)C1(N2CCCCC2)CCN(Cc2nc3ccccc3c(=O)[nH]2)CC1	-11%
Cc1[nH]c2c(Br)cccc2c1[C@H]1[C@@H](CC#N)C1(C)C	?
COc1ccc(C(C(=O)NC2CCCCC2)N(C(=O)Cc2c[nH]c3ccccc23)c2ccccc2C)cc1OC (stereo not drawn)	-6%
CC(C)CCn1c(Br)nc2c1c(=O)n(CC(N)=O)c(=O)n2C	-8%
CC(=O)Oc1ccc(NC(=O)CSc2ccccc2)cc1	-2%
O=S1(=O)C=C(Sc2nc3ccccc3s2)c2ccccc21	?
Cc1cccc(Oc2sc(C(=O)c3ccccc3)c(N)c2C#N)c1	-13%
CCN(CC)C(=O)CSc1nnc(COc2ccccc2)n1CC	-4%
COc1ccc(N2CCN(C(=O)c3ccc(CSc4ccccc4)cc3)CC2)cc1	-12%
Cn1cnnc1SCNC(=O)C(F)(F)F	-15%
COc1cccc(Cn2c(=O)c(-c3cccc(Cl)c3)nc3cncnc32)c1	-21%
C=CCn1c(C(C)NC(=O)c2cccs2)n[nH]c1=S (stereo not drawn)	3%
CNC(=S)Nc1ccc(Nc2ccccc2)cc1	-7%
CC1(C)CC(=O)C(=Cc2cn(-c3ccccc3)nc2-c2ccc(Cl)cc2)C(=O)C1	1.1µM*
Cc1ccc(/C=N/N2CCN(Cc3cccc4ccccc34)CC2)o1	-16%
CCN(CC)S(=O)(=O)c1ccc(N2CCOCC2)c(NC(=O)C(=O)c2c(-c3ccccc3)cc3ccccn23)c1	-17%
O=C1NCCCC1C(=O)NCCN1C(=O)CCC1=O (stereo not drawn)	-5%
CCOc1ccccc1C(=O)N[C@H](C(=O)OCc1cc([N+](=O)[O-])cc2c1OCOC2)C(C)C	-7%
Clc1ccc(-c2cc3ccccc3[nH]2)cc1	49%[activator]
CCOC(=O)c1nn(-c2ccc(C)cc2)cc1C(=O)c1ccccc1	-20%
COC(=O)CCCC[C@@H]1SC[C@@H]2NC(=O)N[C@@H]21	-7%
O=[N+]([O-])c1ccc(NCCCO)c(C(F)(F)F)c1	-10%
Cc1cc(NC(=O)CCC(=O)N(CC(=O)NC2CCCC2)c2ccccc2)no1	-13%
Cc1csc(=Nc2cccnc2)n1CC1CCCCC1	-6%
O=C(OCC(=O)N1CCN(c2ccccc2)CC1)c1cccc(Cl)c1	-6%
CSc1ccccc1N1CCN(C(=O)Nc2ccc3c(c2)NC(=O)CO3)CC1	-24%

Shown as a hit in HPGD block, among the entries above:
SMILES	HPGD block
Cc1ccc2c(CC(=O)NCc3ccco3)coc2c1C	2.8µM*
COc1cc(C(=S)N2CCC(C)CC2)ccc1O	14µM*
Clc1ccccc1CSc1ncn(-c2ccccc2)n1	18µM*
CC(=O)c1ccc(OCCCC(=O)n2nnc3ccccc32)cc1	20µM*
CC1(C)CC(=O)C(=Cc2cn(-c3ccccc3)nc2-c2ccc(Cl)cc2)C(=O)C1	1.1µM*

Remaining list, next part:
SMILES	HPGD block
COC(=O)C1(C)C=CC2(CCCCC2)N1C(C)=O (stereo not drawn)	-6%
COc1ccc(C2CC(=O)Oc3ccc(O)cc32)cc1 (stereo not drawn)	-12%
Cn1cc(S(=O)(=O)N2CCN(Cc3ccccc3)CC2)c(=O)n(C)c1=O	-9%
COc1cc(/C=N/NC(=O)COc2cc(C)cc(C)c2)ccc1OS(=O)(=O)c1ccc(C)cc1	-13%
O=C(CSc1nnc(-c2ccccc2)o1)N1CCN(c2ccccc2)CC1	-16%
CCOC(=O)N1C2C=C(C)[C@@H]2[C@@H]2CC(=O)N21 (stereo partly drawn)	-12%
CC(=O)Nc1cccc(OC(=O)COc2ccc(Br)cc2)c1	-5%
O=c1c(-c2ccc(Cl)cc2)coc2c(CN3CCOCC3)c(O)ccc12	?
c1nc(N2CCCC2)c2[nH]cnc2n1	-17%
CCNC(=O)C1(c2ccccc2)CCCC1	0%
C=CCc1ccc(OCCCCN2CCC(C)CC2)c(OC)c1	-4%
Cc1nc2sc(C(c3ccc(C(C)C)cc3)N3CCN(CCO)CC3)c(O)n2n1 (stereo not drawn)	3%
C=CCOc1c(Cl)cc(CNc2ccc3[nH]c(=O)[nH]c3c2)cc1OC	-11%
COc1cccc(C2=CC(c3cccc(OC)c3OC(F)F)n3nnnc3N2)c1 (stereo not drawn)	-17%
CCOc1ccc(NC(=O)C[n+]2ccccc2)cc1	-14%
Cc1cc([N+](=O)[O-])ccc1NC(=O)c1cncc(Br)c1	-5%
Cc1ccc(S(=O)(=O)N2CCCC2C(=O)OCc2ccccc2)cc1 (stereo not drawn)	-11%
COc1ccc(NS(=O)(=O)c2ccc(NC(=O)C3CCCO3)cc2)cc1 (stereo not drawn)	-25%
COC(=O)/C(=C/c1c[nH]c2ccccc12)NC(C)=O	-9%
COc1ccccc1Oc1ccc(S(=O)(=O)N2CCOCC2)cc1S(=O)(=O)N1CCOCC1	-10%
CCCC1NC(=S)N(C2CCCCC2)C1=O (stereo not drawn)	-9%
C=CCN1C(=O)CSC1=Nc1cccc(O)c1	-5%
S=c1[nH]nc(-c2ccccn2)n1/N=C/c1ccc(Br)s1	7.9µM*
Cc1ccccc1C(=O)Nc1ccc(-c2nc3ccc(C(=O)c4ccccc4)cc3[nH]2)cc1	?
O=C(NCc1cccnc1)/C(=C/c1ccco1)NC(=O)c1ccccc1	-5%
S=C(Nc1ccc(Cl)cc1)NN1CCOCC1	3%
CCOC(=O)C(CCC(=O)O)(CCC(C)C)c1csc(N)n1 (stereo not drawn)	?
N=P(N1CCOCC1)(N1CCOCC1)C12CC3CC(CC(C3)C1)C2	-5%
O=C(O)c1nn(-c2ccccc2)c(-c2ccccc2)c1C(=O)c1ccccc1	1%
Cc1ccc(S(=O)(=O)N2CC(O)CC2C(=O)Nc2ccc3c(c2)CCC3)cc1 (stereo not drawn)	-14%
Cc1cc(C)cc(N(CCC(=O)O)S(=O)(=O)c2ccc3ccccc3c2)c1	-11%
C=CCOC(=O)CCCC(=O)NC1CCCCC1	-16%
Nc1nc(SCCc2ccccc2)c2[nH]cnc2n1	?
Nn1c(SCC(=O)NC2CCCCC2)nnc1C1CC1	-10%
O=C1SC(c2ccccc2)=C/C1=C\N1CCCCC1	-32%
COc1ccc(NC(=O)Nc2cc(NC(=O)Nc3ccc(OC)cc3)c(C)nc2C)cc1	-5%
